Assay outcomes: PubChem, ICCB-Longwood Screening Facility, Harvard Medical School
LANA-nucl inh: inhibitors of KSHV LANA-nucleosome binding, primary screen, biochemical, fluorescence polarization, FITC-LANA1-23, chicken nucleosomes; FITC-LANA1-23 / chicken nucleosome fluorescence polarization; stronger effect = lower value; z-score (test concentration not listed); 51,000 compounds, 0.3% hits; AID 720717, 2013;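 active means both repeat wells score below -2 in polarization z-score versus plate sample wells, excluding overly bright wells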;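 further: 100 nL library stock added to about 30 µL; numbers are from one replicate; some results filed as inactive read as strong as hits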
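Test system: purified chicken nucleosomes with FITC-labelled LANA N-terminal peptide (1-23); Input: 240 nM purified chicken nucleosomes (480 nM peptide binding sites), final; Medium: TEN-BT buffer, pH 7.5; Timing: 10–45 min, room temperature; Technique: fluorescence polarization, 480 nm excitation, 535 nm parallel and perpendicular emission; Replication: duplicates.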
Ab BasE inh: BasE siderophore enzyme inhibitors, primary screen, biochemical, Acinetobacter baumannii ATCC 17978, fluorescence polarization. AID 485350, 2010. 84,000 compounds, 0.1% hits. inhibition, % (test concentration not listed). purified BasE, fluorescence polarization binding displacement;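 active means both replicates above 25% with normal brightness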;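 further: 0% = negative plate control signal and 100% = positive plate control signal; stock transfer was 100 nL into about 30 µL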
Numbers without * were called inactive; x = not tested or not shown; ! = a repeat was not active. An excerpt. The share of hits here may be higher or lower than overall.

structure,LANA-nucl inh,Ab BasE inh
CC(=O)O[C@@H]1CC2C(C)(C)C(=O)C=C[C@]2(C)C2CC[C@@]3(C)[C@H](c4ccoc4)OC(=O)[C@H]4O[C@]43[C@@]21C (some centres not stated),-0.0405,-0.5
CCOC(=O)[C@@H]1CSC2C3SC[C@@H](C(=O)OCC)N3CCN21 (some centres not stated),-0.273,1.5
Cc1ccc(CC2C(=O)N(c3cccc(C(F)(F)F)c3)C(=O)C2C)cc1 (configuration not stated),x,-1.6
CN(C)C1(CNC(=S)NCc2ccccc2)CCCCC1,x,0.1
CCn1nnc2cc(C(=O)Nc3ccc(S(=O)(=O)C(F)F)cc3)ccc21,x,-0.6
CN(CC(=O)NC(=O)NC1CCCCC1)Cc1nc2ccccc2c(=O)[nH]1,x,2.8
O=S(=O)(c1ccccc1)N1CCN(CC2CC=CCC2)CC1 (configuration not stated),0.707,-0.4
Cc1cc(C)c2[nH]c(=O)c(CN(CCCO)C3(c4nnnn4C4CCCC4)CCCC3)cc2c1,1.04,1.1
COc1ccc(C(=O)N2CCSC2=S)cc1,-0.849,-0.6
CCCN(S(=O)(=O)c1ccccc1F)S(=O)(=O)c1ccccc1Br,x,2.9
Cc1sc2ncnc(Sc3nnc(-c4cccs4)n3CC3CCCO3)c2c1C (configuration not stated),x,-0.4
O=S(=O)(c1ccccc1)c1nnn2c1nc(NCc1ccco1)c1sccc12,-1.2,1.2
CCn1c(/N=C/c2ccc(OC)cc2O)nc2ccccc21,1.13,-2.7
Oc1ccccc1OCc1ccccc1,-0.546,3.0
O=C(Nc1ccncc1)c1cnc2sccn2c1=O,-1.09,0.6
CN1C(=O)C2(C(C#N)=C(N)Oc3cc(O)ccc32)c2ccccc21 (configuration not stated),0.165,1.4
CN(CCc1ccccn1)C(=S)NCc1ccccc1,x,-0.7
O=S1(=O)C=C(N2CCCC2)c2ccccc21,0.822,2.3
CN1CCN(C(=O)C2CCCCC2C(=O)O)CC1 (configuration not stated),-0.798,0.9
COc1ccc(OCC(O)CNC(=S)Nc2ccc3c(c2)OCO3)cc1 (configuration not stated),-0.51,1.3
Cc1ccc(CC(=O)NCC(c2ccco2)N(C)C)cc1C (configuration not stated),x,-1.2
CN(C)c1ccc(-c2nc(-c3ccccc3)c(-c3ccc(O)cc3)[nH]2)cc1,0.271,1.9
CCc1ccc(OCc2nnc(SCCC#N)n2C(C)c2ccccc2)cc1 (configuration not stated),x,1.3
O=C(CSc1nn(-c2ccc(F)cc2)c(=S)s1)N1CCN(C(=O)c2ccco2)CC1,x,-0.5
N#Cc1c(-c2ccc(Cl)cc2Cl)c(C#N)c(=O)n(N)c1N,-0.28,1.1
CCCCn1c2ccc(F)cc2c2nnc(NN)nc21,-0.003,3.6
O=C(OCN1C(=O)c2ccccc2C1=O)c1ccc2c(c1)OCCO2,x,0.4
CC(=O)N(C)Cc1nc2ccccc2[nH]1,-0.268,0.7
Cc1cccc(OCC(=O)Nc2cccc(-c3nc4ncccc4o3)c2)c1,-1.3,-1.7
CN(CC(=O)N1CCCC1=O)Cc1ccccc1,0.507,-1.0
CCCN1C(=O)/C(=c2\sc3nc(-c4ccccc4)nn3c2=O)c2ccccc21,-0.251,0.1
Cc1sc2ncn(CC(=O)N3CCC(C)CC3)c(=O)c2c1C,0.166,-3.4
C=CCN(CC=C)C(=O)C1CCC(C(=O)N(CC=C)CC=C)CC1 (configuration not stated),-0.437,5.5
O=C1CCCc2nc(N3CCN(c4ccccc4)CC3)ncc21,-0.791,-0.7
CCNC(=O)CSc1ccc2ccccc2c1,x,-1.5
CC(C)CN=CC1=C(O)c2ccccc2C1=O,-0.614,0.9
CS(=O)(=O)c1ccccc1C(=O)Nc1nccs1,0.305,0.8
CC1(N(O)C=C2C=CC(=O)C=C2)CCCCC1=O (configuration not stated),-0.0935,-1.4
Cn1cccc1/C=C1\SC(=S)NC1=O,1.67,-17.9
O=C(Cn1cnc2ccc(Cl)cc2c1=O)c1ccc[nH]1,x,-2.4
O=S(=O)(c1cc(Cl)sc1Cl)N1CCSCC1,0.387,x
Cc1cccc(C)c1NC(=O)NC1(C(=O)N2CCCCC2)CCCCC1,-0.339,0.8
O=C(Nc1ccc(S(=O)(=O)N2CCCCC2)cc1)C(F)(F)F,0.42,2.2
Cc1oc(C(C)(C)C)cc1C(=O)Nc1cccc(C(=O)O)c1,1.26,-2.1
CC(C)NC(=O)/C(C#N)=C/c1ccc(-c2ccc(S(=O)(=O)N3CCOCC3)cc2)o1,x,-1.7
N#C/C(=C\N1CCCC1)S(=O)(=O)c1ccc(Cl)cc1,0.418,0.6
CCc1ccc(OCC(=O)Nc2ccc(S(N)(=O)=O)cc2)cc1,0.021,-0.6
Cc1ccccc1NC(=O)C1C(c2cccs2)C(C#N)=C(SCC(N)=O)NC1(C)O (configuration not stated),-0.292,1.8
N#CC(C#N)=Cc1cn(Cc2ccccc2)c2ccccc12,-0.287,0.4
CCn1c(N)c(C(=O)CSc2ncccn2)c(=O)[nH]c1=O,x,0.6
Cc1ccc(SCc2[nH]nc3c2C(c2ccoc2)C(C#N)=C(N)O3)cc1 (configuration not stated),-0.302,-1.2
CC(=O)NS(=O)(=O)c1ccc(NC(=O)c2ccco2)cc1,-1.4,0.7
CCn1cc(C2=NOC(C(=O)NC3CCCC3)C2)c(C)n1 (configuration not stated),-1.6,-0.2
Cc1cc(-c2csc(NC(=O)CN3C(=O)C4C5C=CC(C5)C4C3=O)n2)c(C)n1-c1ccccc1 (configuration not stated),x,-0.1
CCN1CCN(C(=O)c2ccc(S(=O)(=O)Nc3ccc(OC)cc3)cc2)CC1,x,-2.8
COC(=O)c1cc(COC(=O)c2ccc(OC(F)(F)F)cc2)oc1C,x,0.0
Cc1ccc(-c2cn3nc(N4CCCC(C(=O)Nc5cc(C)cc(C)c5)C4)sc3n2)cc1 (configuration not stated),-0.192,-1.5
CCC(=O)Nc1c(C(=O)N(CCN(C)C)Cc2ccco2)oc2ccccc12,x,-7.2
Cc1cc(NC(=O)C2CCCCC2C(=O)O)no1 (configuration not stated),x,3.0
Cc1cc(C)c2c(NCc3ccc(N4CCCCC4)cc3)n[nH]c2n1,0.905,2.7

Single values from the results shown:
CC(=O)NS(=O)(=O)c1ccc(NC(=O)c2ccco2)cc1 – LANA-nucl inh = -1.4
CCC(=O)Nc1c(C(=O)N(CCN(C)C)Cc2ccco2)oc2ccccc12 – Ab BasE inh = -7.2
N#CC(C#N)=Cc1cn(Cc2ccccc2)c2ccccc12 – Ab BasE inh = 0.4
N#C/C(=C\N1CCCC1)S(=O)(=O)c1ccc(Cl)cc1 – Ab BasE inh = 0.6
CCN1CCN(C(=O)c2ccc(S(=O)(=O)Nc3ccc(OC)cc3)cc2)CC1 – Ab BasE inh = -2.8
Cc1cccc(C)c1NC(=O)NC1(C(=O)N2CCCCC2)CCCCC1 – Ab BasE inh = 0.8

(more compounds)
structure,LANA-nucl inh,Ab BasE inh
CC(NC(=O)CCN1CCOCC1)C1COc2ccccc2O1 (configuration not stated),-0.752,1.3
O=C(c1ccc(Cl)cc1)N1CCCCC(Sc2nnc(C3CC3)n2C2CC2)C1=O (configuration not stated),x,0.8
CCOC(=O)C1=C(Nc2ccc(Cl)cc2)OCC1=O,-1.24,3.2
CCOC(=O)c1c(-c2cccs2)csc1NC(=O)c1ccccc1,-1.07,-0.8
CC1(C)CC(N2CCOCC2)CC(C)(C)N1,-0.7,3.8
Cc1cc(C)nc(NC(=O)COC(=O)/C=C/c2cccs2)n1,x,0.7
CC(Oc1ccc(F)cc1)c1nnc(SCC(=O)N2CCNC2=O)o1 (configuration not stated),x,1.8
O=C(Nc1nccs1)c1cccc(NS(=O)(=O)c2ccccc2)c1,-0.104,2.9
CCOC(=O)c1cc(-c2ccc(OC)c(S(=O)(=O)NCCN3CCCCCC3)c2)on1,0.008,-3.7
O=C(Cc1coc2ccc3ccccc3c12)NCc1ccco1,-0.321,-1.4
CC(NCc1ccc(S(N)(=O)=O)cc1)C(=O)NCc1ccccc1 (configuration not stated),x,2.9
CCNc1ncnc2c1cnn2-c1ccc(C)c(C)c1,0.817,1.4
Nc1c(N(C(=O)c2ccc(Br)o2)C2CCCC2)c(=O)[nH]c(=O)n1Cc1ccccc1,x,-0.6
Cc1cc(C)c(C(=O)CC(N2CCOCC2)C(F)(F)F)c(=O)[nH]1 (configuration not stated),0.149,-1.3
O=C(CSc1n[nH]c(Cc2ccccc2)n1)NC1CCCCC1,-2.4*,1.8
COc1ccc(C(=O)NC(Nc2cc(C)on2)(C(F)(F)F)C(F)(F)F)cc1,-0.655,2.4
O=C(CSC1=NC(=O)C(c2ccccc2)C(=O)N1)Nc1nncs1 (configuration not stated),-0.631,0.6
COc1ccccc1OCc1ccc(C(=O)NCc2ccncc2)o1,0.746,-0.2
CCCC(OC(=O)CN1C(=O)COc2ccccc21)C(=O)NC1CCCC1 (configuration not stated),-0.863,0.5
COc1cc(S(=O)(=O)N(C)C)ccc1F,0.0855,-0.2
O=C(Nc1nccc2ccccc12)c1cccs1,x,-1.9
Cc1cc(-c2csc(NC(=O)C3CCCO3)n2)c(C)n1CCc1ccccc1 (configuration not stated),x,1.9
CC(C)n1cc(/C(N)=N/O)c(=O)n(Cc2ccccc2)c1=O,x,1.9
N#CCCOC1(C#CC#CC2(OCCC#N)CCCCC2)CCCCC1,-0.48,3.9
O=c1cc(-c2ccc(O)cc2)oc2ccc(O)cc12,0.132,4.7
CCCCN(CC)C(=O)C1c2ccccc2Oc2ccccc21,-0.213,1.9
Cc1nn(Cc2c(Cl)cccc2Cl)c(C)c1CNCC(c1ccco1)N1CCCC1 (configuration not stated),x,0.4
Cc1ccccc1NC(=O)N1CCCC(C(N)=O)C1 (configuration not stated),-0.577,0.1
CN(CC(=O)Nc1ccc(F)c(F)c1F)C(=O)/C=C/c1ccco1,x,3.3
CN(C)c1cccc(C(=O)OCCN2C(=O)c3ccccc3C2=O)c1,x,2.0
CCCCN(CC)C(=O)c1cc(OC)c(OC)c(OC)c1,0.005,0.5
CCOC(=O)c1c(CC(C)C)csc1NC(=O)c1ccccc1OC(C)=O,x,1.4
CC1=CC(=C2C(=O)NC(=S)NC2=O)C=C(C)N1Cc1ccco1,-0.25,11.1
CSc1cccc(NC(=O)CSc2ncn[nH]2)c1,0.331,2.1
O=C1OCCC1Sc1nc2cc(Cl)ccc2s1 (configuration not stated),x,3.4
C=CCN(CC=C)CCOc1ccc(Cl)cc1,-0.577,1.2
COc1ccc2[nH]c3c(=O)n(CC(=O)NCc4ccco4)c(=S)[nH]c3c2c1,0.0195,-0.2
CCOc1ccc(-c2nc3c(c(C)nn3-c3ccccc3)c3cc(OC)c(OC)cc23)cc1,x,2.6
O=C1c2cccnc2C(=O)N1Cc1ccc(S(=O)(=O)NC2CCCCC2)cc1,0.579,-2.2
CC(C)(C)C(O)/C=C/c1ccc2c(c1)OCO2 (configuration not stated),0.896,x

Four compounds picked at random from the list so far, as already listed:
structure,LANA-nucl inh,Ab BasE inh
Cc1cc(-c2csc(NC(=O)C3CCCO3)n2)c(C)n1CCc1ccccc1 (configuration not stated),x,1.9
CCCCN(CC)C(=O)c1cc(OC)c(OC)c(OC)c1,0.005,0.5
CCCCN(CC)C(=O)C1c2ccccc2Oc2ccccc21,-0.213,1.9
CN(C)c1cccc(C(=O)OCCN2C(=O)c3ccccc3C2=O)c1,x,2.0

Other structures follow:
structure,LANA-nucl inh,Ab BasE inh
CCc1c(C)n([O-])c2c([n+]1=O)CCCCC2,x,-3.7
COc1ccc2cc(Br)ccc2c1CC(=O)NCc1ccco1,-0.0585,-1.7
COCCN1C(=O)c2oc3cc(C)c(C)cc3c(=O)c2C1c1ccc(OCC(N)=O)cc1 (configuration not stated),-0.639,1.2
O=C(NCCN1CCN(c2ccccc2F)CC1)c1cc(C2CC2)[nH]n1,-0.77,-0.9
CCn1c(CNC(=O)c2ccccc2F)nnc1SCc1nc2ccccc2c(=O)[nH]1,-0.191,0.9
Cc1onc(-c2ccccc2)c1C(=O)N(C)CCc1ccccn1,x,1.5
O=C(NCC1CCCO1)c1nc(-c2cccc(C(F)(F)F)c2)no1 (configuration not stated),0.21,2.0
Cc1cccc(NC(=S)NCCN2CCOCC2)c1,x,1.9
Cc1[nH]c2ccc(S(N)(=O)=O)cc2c1C,0.09,-2.8
O=c1oc2ccccc2cc1-c1nc2c(s1)CCCC2,-0.637,-0.3
CCC(C)(C)NC(=O)/C=C/c1cccs1,x,-1.6
COC(=O)/C=C1\SC(=NC(=O)c2ccc(F)cc2)NC1=O,x,3.0
CC[C@@]1(O)C(=O)OCc2c1cc1n(c2=O)Cc2cc3c(CN(C)C)c(O)ccc3nc2-1,-9.04*!,15.3
Brc1ccc(-c2cnc3ccccc3n2)s1,x,1.5
Cc1ccc(Oc2ncc(C(F)(F)F)cc2Cl)c2c1CCC2,x,2.3
CCCC(C(=O)NC1CCCCC1)N1Cc2ccccc2C1=O (configuration not stated),1.86,-0.2

A section of the results above, for reference:
structure,LANA-nucl inh,Ab BasE inh
N#CC(C#N)=Cc1cn(Cc2ccccc2)c2ccccc12,-0.287,0.4
CCn1c(N)c(C(=O)CSc2ncccn2)c(=O)[nH]c1=O,x,0.6
